Ecoli rRNA inh = reduced GFP signal of wild-type E. coli, primary screen, bacterial rRNA inhibitor project, GFP/RFP fluorescence, OD600, single point; E. coli WT GFP vs humanized-ribosome RFP mutants, 24 h; hits give low values; DMSO median 0, no signal -100; GFP signal change (wild-type ribosome), % (test concentration not listed); hit rate 1.6% among 350,000; AID 720706, 2013;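 active = significant combined selectivity score with lowered wild-type GFP, culture density cut under 30%, mutant RFP and density less affected; inactive = any of these conditions unmet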; note: one replicate is shown; some compounds called inactive have numbers as strong as hits
Calb FLC = C. albicans growth inhibition with fluconazole, primary screen, CaCi-2 strain, Alamar Blue fluorescence; C. albicans CaCi-2 (fluconazole-resistant clinical isolate) + fluconazole, 48 h; growth inhibition, % (concentration not given with the values); hit rate 0.57% among 300,000;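 active = most replicates above 75%; inconclusive = exactly half above 75%; inactive = most below 75%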;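 note: all wells also contain fluconazole at 8 µg/ml as a sub-toxic cotreatment; 0% = median of DMSO wells and 100% = median of geldanamycin control wells; wells of about 8 µL received 7.5 nL stock; the first replicate is given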
ALR inh = inhibitors of human ALR sulfhydryl oxidase, primary screen, biochemical, H2O2 detection, HRP-luminol luminescence, single point | purified ALR, DTT oxidation | inhibition, % (no concentration beside the values) | hit rate 3.8% among 290,000 | FAD-linked sulfhydryl oxidase ALR (Homo sapiens), P55789;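 active = mean and each replicate at 75% or more; inconclusive = only one of the two met; inactive = neither met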;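 note: stock transfer was 7.5 nL into about 7.5 µL; 0% = neutral wells and 100% = wells with inactivated enzyme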
A1 inh = caspase 3/7 activation in MEF A1-2A-BIM cells, primary screen, A1 inhibitor project, cell-based, luminescence, HTS; Caspase-Glo 3/7 luminescence, 3 h; percent of clofoctol response, vehicle zero; caspase activation, % (no concentration beside the values); hit rate 0.066% among 330,000;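 active = over half of replicate activation scores above 10%, or exactly half above 10 with the replicate mean above 10; inconclusive = replicate mean below 10 yet half the replicates above 10; inactive = over half of replicates below 10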;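 note: wells of about 30 µL received 50 nL stock; many hits fall short of the cut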
Beta2AR agonist = beta2AR agonists driving receptor internalization, primary screen, cell-based, FAP fluorogen, flow cytometry; Beta-2 adrenergic receptor (Homo sapiens), P07550; Am2.2-beta2AR cells; reference of the scale not given here; response, % (no concentration beside the values); hit rate 0.43% among 340,000;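 active = response above a set limit, near 3 SD of response in nonfluorescent compounds, cut at about 42% in these data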;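 note: stock transfer was 100 nL into about 11 µL; a reference agonist was the positive control; negative values mostly stem from fluorescent compounds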
T cruzi repl = inhibitors of intracellular T. cruzi growth, primary screen, luminescence, NIH3T3 host cells; T. cruzi beta-gal in NIH3T3, 90 h; inhibition, % (concentration not given with the values); hit rate 1.4% among 300,000; AID 1885, 2009;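 active = mean inhibition across valid replicates above about 55%, limit read from the data; inconclusive = mean below that limit but half or more replicates reach it; inactive = mean below it, under half of replicates reach it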;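 note: signal also drops with host cell toxicity which is not excluded here; 0% = plate median of DMSO wells and 100% = zero luminescence signal; higher percent means less beta-gal luminescence so fewer parasites; stock transfer was 50 nL into about 50 µL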
Beta apoptosis = inhibitors of cytokine-induced beta cell apoptosis, primary screen, luminescence; hit rate 0.8% among 300,000; protection from apoptosis, % (no concentration beside the values); AID 435005, 2010; INS-1E cytokine-induced death, ATP luminescence, 48 h; percent of positive-control rescue, neutral wells zero;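 active = all replicates at 75% or more, or half of them and the mean; inconclusive = half reach 75% but not the mean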;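 note: 0% = cytokine-treated negative control wells and 100% = positive control rescue; higher means more ATP so stronger rescue from cytokine killing; wells of about 40 µL received 100 nL stock; the first replicate is given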
LANA-H2A inh = blockers of LANA interaction with H2A/H2B – biochemical, FP readout, HTS, primary screen; Protein LANA1 (Human herpesvirus 8 type P (isolate GK18)), Q9QR71; cell-free LANA-H2A/H2B peptide, fluorescence polarization; inhibition, % (test concentration not listed); hit rate 0.6% among 320,000; AID 2629, 2010; in the data active = inhibition mostly above about 10%, no sharp cut-off; inactive = mostly below about 6.7%;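 note: stock transfer was 7.5 nL into about 10 µL; 0% = median of vehicle wells and 100% = median of positive control wells; one replicate is shown; the record names a cut of 25% in any replicate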
Target sequence (Q9QR71 whole entry, looked up): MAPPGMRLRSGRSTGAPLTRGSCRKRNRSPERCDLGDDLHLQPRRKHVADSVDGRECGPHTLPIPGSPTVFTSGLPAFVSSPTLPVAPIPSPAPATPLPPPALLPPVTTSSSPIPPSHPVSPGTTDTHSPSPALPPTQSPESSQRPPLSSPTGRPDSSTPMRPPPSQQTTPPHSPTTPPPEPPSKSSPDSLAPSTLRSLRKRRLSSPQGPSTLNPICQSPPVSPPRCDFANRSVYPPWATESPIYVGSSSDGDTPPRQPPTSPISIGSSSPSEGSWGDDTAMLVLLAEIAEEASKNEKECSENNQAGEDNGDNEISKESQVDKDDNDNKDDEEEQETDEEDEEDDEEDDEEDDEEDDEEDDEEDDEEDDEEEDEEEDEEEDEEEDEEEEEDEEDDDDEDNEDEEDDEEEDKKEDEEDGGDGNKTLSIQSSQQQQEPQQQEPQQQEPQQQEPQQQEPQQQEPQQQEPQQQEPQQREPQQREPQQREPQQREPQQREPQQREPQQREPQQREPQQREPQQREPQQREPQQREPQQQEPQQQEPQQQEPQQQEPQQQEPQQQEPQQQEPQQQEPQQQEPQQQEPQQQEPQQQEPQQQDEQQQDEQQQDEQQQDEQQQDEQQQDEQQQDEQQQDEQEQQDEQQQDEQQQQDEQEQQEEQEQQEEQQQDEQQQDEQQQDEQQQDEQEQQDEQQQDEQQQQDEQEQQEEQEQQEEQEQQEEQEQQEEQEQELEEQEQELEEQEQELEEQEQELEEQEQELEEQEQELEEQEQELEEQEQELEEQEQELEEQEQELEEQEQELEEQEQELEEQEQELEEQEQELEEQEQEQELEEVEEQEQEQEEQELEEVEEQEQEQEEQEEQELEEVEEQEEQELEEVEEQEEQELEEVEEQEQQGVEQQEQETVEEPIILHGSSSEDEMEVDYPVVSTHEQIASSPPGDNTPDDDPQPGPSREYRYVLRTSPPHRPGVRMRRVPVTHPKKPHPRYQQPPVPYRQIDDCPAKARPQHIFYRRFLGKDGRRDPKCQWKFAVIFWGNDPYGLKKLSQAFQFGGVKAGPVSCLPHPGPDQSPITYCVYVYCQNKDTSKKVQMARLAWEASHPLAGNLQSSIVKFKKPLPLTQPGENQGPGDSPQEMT
Ecoli rRNA inh OD600 = recorded beside Ecoli rRNA inh, whose call it bears; OD600 change, %; measured here: OD600 growth;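 optical density of the mix in the first replicate; 0 = DMSO median and -100 = no signal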
Ecoli rRNA inh RFP = second read-out of Ecoli rRNA inh, no call of its own (marks repeat the call); RFP signal change, %; measured here: RFP humanized mutant strains;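 first replicate; 0 = DMSO median and -100 = no signal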
Active calls of the source: *; u = inconclusive; x = not tested or not shown. The list is partial (hit frequency here may not be typical).

Every second line gives: Ecoli rRNA inh	Ecoli rRNA inh OD600	Ecoli rRNA inh RFP	Calb FLC	ALR inh	A1 inh	Beta2AR agonist	T cruzi repl	Beta apoptosis	LANA-H2A inh
C/C(=N\Nc1nc(C)cc(-c2ccccc2)n1)c1cccc(N)c1
    9	9	0.4	-3	99*	-5.8	5	-12	89*	-4.5
O=C(CCC1CCCN(C(=O)c2ccsc2)C1)N1CCN(c2ccccn2)CC1 (stereo unspecified)
    -18*	-14*	4.2*	-1	x	-0.1	-5	9	-3	-1.8
CCc1ccc(C2=CSC3=NCCN23)cc1
    2	-9	-4.3	-5	59	2.3	0	1	-2	-5.2
COc1ccc(-c2cc(C(=O)NCCN3CCOCC3)c3ccccc3n2)cc1
    x	x	x	2	-9	1.1	-1	-2	3	-12
CN(Cc1ccccc1)C(=O)CN(C1CCCCC1)S(C)(=O)=O
    x	x	x	1	-3	0.7	-6	-10	-1	-1.7
Cc1cc(Cl)ccc1OCC(=O)Nc1nc(-c2cccs2)cs1
    x	x	x	-12	-4	0.3	-13	-13	0	9.1
O=C(N/N=C/c1cc(Br)cc([N+](=O)[O-])c1O)c1ccc(NC(=O)c2ccc(F)cc2)cc1
    -6	7	2.2	8	4	0.2	5	19	46	3.3
CSc1ccccc1NS(=O)(=O)c1ccccc1
    x	x	x	15	x	0.4	1	13	9	9.8
CC1=C(C(=O)OC(C)(C)C)C(c2ccc3ccccc3c2)NC(=O)N1C (stereo unspecified)
    -5	-7	4.0	-18	x	0.7	-1	26	x	1.5
COc1ccc(S(=O)(=O)NCc2cccnc2)cc1NC(=O)c1ccccc1
    -52	-73	-14	-4	-4	-0.3	-9	16	-2	-11
O=C(CN1C(=O)C2CC=CCC2C1=O)N1CCN(c2ccc([N+](=O)[O-])cc2)CC1 (stereo unspecified)
    -33	-41	-20	7	x	-0.3	16	5	-2	-1.0
COc1ccc(Cc2nnc(NC(=O)c3ccco3)s2)cc1
    x	x	x	65	-6	-0.4	-11	-7	2	4.2
Cc1ccc(OCC(=O)N2CCCCCCC2)cc1C
    -17	-15	-1.7	-6	-8	0.8	3	6	-2	2.7
CC1(C)NC(=O)N(CC(O)COc2cc3ccccc3cc2C(=O)N2CCCCC2)C1=O (stereo unspecified)
    x	x	x	21	-5	-0.8	-4	8	5	4.4
CCOc1ccc(NS(=O)(=O)c2ccc(C(=O)NCCN3CCOCC3)cc2)cc1
    4	10	-5.0	-3	3	0.0	7	-3	0	1.0
O=C(Nc1ccccc1)N(Cc1ccc(Cl)cc1)CC(O)C(F)(F)F (stereo unspecified)
    x	x	x	2	x	3.0	-2	-1	0	-5.8
CCOc1ccc(NC(=O)CSc2nnc(-c3ccccn3)n2C)cc1
    x	x	x	9	-8	-0.1	1	11	2	4.4
COC(=O)c1ccc(N/N=C/c2cc([N+](=O)[O-])cc(OC)c2O)cc1
    5	15	7.6	-40	-8	-6.8	2	28	3	8.2
COc1ccc(CC(=O)NNS(=O)(=O)c2ccc(F)cc2)cc1OC
    7	0	-2.2	-13	15	0.8	4	-3	-5	-0.6
C/C(=N\NC(=O)CNc1ccc(F)cc1)c1cc2ccccc2o1
    -26	-32	-1.8	3	-9	0.7	3	1	0	-0.7
COCc1cc(=O)n2[nH]c(-c3ccc(C)cc3)cc2n1
    x	x	x	-13	1	-1.7	1	0	0	0.5
COc1ccc(/C=C/c2nc(N)nc(-c3ccccc3O)n2)cc1
    -1	4	-0.5	-2	2	-0.4	-3	7	-6	0.9
O=C(O)c1cccc(-n2cccc2/C=C2/SC(=O)N(CC(=O)N3CCCC3)C2=O)c1
    -5	-11	-0.5	-10	x	0.0	-3	-19	-2	-8.0
COc1ccccc1N1CCN(C(=O)CCS(=O)(=O)c2ccc3c(c2)NC(=O)C(C)S3)CC1 (stereo unspecified)
    -6	-6	0.6	2	13	-0.2	10	12	0	-3.5
O=C(Cn1cc(C(F)(F)F)ccc1=O)N/N=C/c1cccc(Cl)c1
    -2	1	-2.5	1	-28	1.2	-9	-11	-3	1.2
CCn1c(=O)c2c(nc3n2CCCN3Cc2ccccc2)n(C)c1=O
    1	-1	-0.5	2	14	0.2	2	u	2	4.0
O=c1c(C=Nc2ccc(Cl)cc2)c[nH]n1-c1cccc(Cl)n1
    x	x	x	-1	-7	-0.2	-15	-5	-7	1.1
CC(c1nnc(SCC(=O)c2c(N)n(C3CC3)c(=O)[nH]c2=O)n1-c1ccc(F)cc1)N(C)C (stereo unspecified)
    0	5	-2.8	x	1	0.4	-3	x	-1	1.8
O=C(OCC(=O)N1CCCC1)c1c2c(nc3ccccc13)CCCCC2
    -21	-26	-6.0	u	-21	0.2	-1	9	6	3.5
O=C(CN(C(=O)CCC(=O)Nc1ccccn1)c1cccc(F)c1)NCc1ccc2c(c1)OCO2
    2	6	-1.3	-1	-7	0.6	-4	1	4	-3.4
S=c1[nH]nc(Nc2ccc(Cl)cc2)s1
    -18	-2	-3.8	-11	x	-0.4	9	7	x	0.5
Cc1sc2ncnc(OCC(=O)N3CCN(C(=O)c4ccco4)CC3)c2c1C
    8	6	2.5	-5	x	-0.7	-2	-3	-4	-0.9
O=C1Nc2cc(Cl)c(Cl)cc2N(O)N1c1cc(Cl)cc(Cl)c1
    x	x	x	-4	10	0.2	7	-12	-4	1.1
N#Cc1nc(COc2ccc(F)cc2)oc1N1CCCCC1
    8	16	1.8	u	x	0.6	4	-7	-5	1.8
O=C(COc1ccc(-n2cnnn2)cc1)NC(=O)NCc1ccccc1
    x	x	x	-32	-5	1.7	14	-6	-4	7.0
COc1cccc(Cn2cnc3c(NS(=O)(=O)c4ccc(Cl)cc4Cl)c(C)c(C)cc32)c1
    x	x	x	-1	-10	-0.2	8	30	-13	-2.2
CCOC(=O)c1ccccc1NC(=O)CSc1nnc(COc2ccccc2C)n1C
    x	x	x	-13	x	0.2	-8	1	-34	2.5
CCN(Cc1ccccc1)C(=O)c1cccc(OC2CCN(C(=O)C3CC3)CC2)c1
    -28	-21	-1.5	1	3	0.1	0	-4	3	-1.4
CN(c1ccccc1C(=O)Nc1ccccc1-c1ccccc1)S(C)(=O)=O
    -5	-2	-0.4	6	-7	0.0	-3	-8	6	0.8
Cc1ccc(C)c(OCC(=O)Nc2ccc3c(c2)OCO3)c1
    -1	6	-5.7	-7	-4	0.3	4	27	8	-4.0
COc1ccc(N2CCN(C(c3cccs3)C(C)NS(=O)(=O)c3ccccc3)CC2)cc1 (stereo unspecified)
    x	x	x	-22	18	-0.5	-4	5	3	0.4
COc1cccc(CN(C)C(=O)c2ccc(OCC(=O)Nc3cccc(C(F)(F)F)c3)c(OC)c2)c1
    -1	-6	11	0	-2	1.8	-4	15	1	-1.1
N=c1sccn1CC(=O)NCCc1ccc(Cl)cc1Cl
    x	x	x	x	-8	0.2	3	x	-3	7.7
CCCCNC(=S)N/N=C/c1cc(C)ccc1C
    x	x	x	-2	x	0.0	-5	1	5	0.4
O=C(CN(C(=O)c1ccc(Cl)cc1)N1C(=O)C2CCCCC2C1=O)c1ccc(Cl)cc1 (stereo unspecified)
    x	x	x	-6	-6	u	1	-7	-8	6.4
CS(=O)(=O)c1ccc(NCC2CCCO2)c([N+](=O)[O-])c1 (stereo unspecified)
    3	13	1.8	-2	x	-0.3	-7	0	-5	4.3
C/C(=N\NC(=O)Cn1c(-c2ccccn2)nc2ccccc21)c1cccc(O)c1
    -2	-8	3.0	0	10	-0.1	5	-12	7	0.4
O=C(Nc1ccccc1Cl)NC1(C(=O)N2CCOCC2)CCCCC1
    15	5	-0.2	0	-2	0.3	-8	-13	0	-7.4
O=S(=O)(c1ccc(F)cc1)N1CCCC(c2nc(-c3ccc(F)cc3)no2)C1 (stereo unspecified)
    10	4	5.3	x	x	0.0	-6	x	3	1.3
COc1ccccc1NC(=O)C(=O)NCCC1CCCCN1S(=O)(=O)c1ccccc1 (stereo unspecified)
    -2	-10	9.5	9	-3	0.3	6	10	x	-5.4
COc1ccc(-c2csc(NCc3ccco3)n2)cc1C
    x	x	x	2	-6	-0.3	0	2	1	-1.5
O=C(CCCc1ccccc1)NCCS(=O)(=O)N1CCN(c2ccc(F)cc2)CC1
    3	8	1.0	10	-1	0.3	-11	-9	-6	3.1
O=C(NN=Cc1c(F)c(F)c(F)c(F)c1F)c1ccc(NS(=O)(=O)c2cccs2)cc1
    -17	-23	2.2	x	2	1.0	10	x	-6	-1.3
Cc1nc2c(ncn2-c2ccccc2)c(=O)n1NC(=O)CN1CCCCC1
    4	4	-1.9	-4	-12	0.1	0	-4	x	-5.4
CN(C)c1ccc(-c2nnn(CC(=O)N3c4ccccc4CCc4ccccc43)n2)cc1
    0	-1	-0.4	-51	5	-0.3	-8	34	0	2.6
CC(NC(=O)COc1ccc(-c2nnco2)cc1)c1ccc(Cl)cc1Cl (stereo unspecified)
    x	x	x	1	-3	-0.3	-5	-23	2	0.9
CCCN(CC(=O)Nc1ccccc1C)C(=O)c1ccc(COc2ccccc2)cc1
    -30	-21	-5.9	-1	1	-0.3	0	6	8	-2.2

Structures from the list above containing a CF3 group (3):
Every second line gives: Ecoli rRNA inh	Ecoli rRNA inh OD600	Ecoli rRNA inh RFP	Calb FLC	ALR inh	A1 inh	Beta2AR agonist	T cruzi repl	Beta apoptosis	LANA-H2A inh
O=C(Nc1ccccc1)N(Cc1ccc(Cl)cc1)CC(O)C(F)(F)F (stereo unspecified)
    x	x	x	2	x	3.0	-2	-1	0	-5.8
O=C(Cn1cc(C(F)(F)F)ccc1=O)N/N=C/c1cccc(Cl)c1
    -2	1	-2.5	1	-28	1.2	-9	-11	-3	1.2
COc1cccc(CN(C)C(=O)c2ccc(OCC(=O)Nc3cccc(C(F)(F)F)c3)c(OC)c2)c1
    -1	-6	11	0	-2	1.8	-4	15	1	-1.1

High-throughput results deposited in PubChem by several laboratories.
